GIRK2 activ: activators of human GIRK2 potassium channels | calls only for hits at 25 µM | HEK293-GIRK2 thallium flux, Thallos fluorescence | 63,000 compounds, 0.05% hits | AID 1259325;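 active means among the strongest 0.2% of first-round signals and kept after retests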;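 further: first round at about 10 µM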
Target sequence (P48051 whole entry, looked up): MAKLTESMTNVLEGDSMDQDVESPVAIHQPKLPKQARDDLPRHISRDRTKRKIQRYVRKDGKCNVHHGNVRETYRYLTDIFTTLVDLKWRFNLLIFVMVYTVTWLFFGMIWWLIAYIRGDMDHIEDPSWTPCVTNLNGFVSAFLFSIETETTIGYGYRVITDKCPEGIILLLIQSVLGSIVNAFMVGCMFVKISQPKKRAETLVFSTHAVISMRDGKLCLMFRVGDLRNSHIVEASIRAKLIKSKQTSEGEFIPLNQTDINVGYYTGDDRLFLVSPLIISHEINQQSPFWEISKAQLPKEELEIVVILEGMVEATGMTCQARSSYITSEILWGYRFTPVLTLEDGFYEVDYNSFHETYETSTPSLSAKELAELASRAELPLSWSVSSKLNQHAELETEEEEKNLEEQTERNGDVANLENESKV
Calls only.

What do the screens show for `COc1ccc(S(=O)(=O)N2CCCOC2CNC(=O)C(=O)NCc2ccccn2)cc1C` (centres undefined)?
GIRK2 activ: inactive

What do the screens show for `CCCCn1c(-c2cccc([N+](=O)[O-])c2)nc2oc3ccc(Cl)cc3c(=O)c2c1=O`?
GIRK2 activ: inactive

Results for CC(C)(C)c1ccc(S(=O)(=O)N2CCN(c3ccccc3)CC2)cc1 ?
GIRK2 activ: inactive

Results for O=C(CSc1nnc(N2CCN(C(=O)C3COc4ccccc4O3)CC2)s1)Nc1ccccc1 (centres undefined) ?
GIRK2 activ: inactive

What do the screens show for `CCN1CCN(Cc2cc(=O)oc3ccc(C(C)C)cc23)CC1`?
GIRK2 activ: inactive

What do the screens show for `COc1cccc2cc(C(=O)N3CCC(Oc4cnccn4)CC3)c(=O)oc12`?
GIRK2 activ: inactive

How did Cc1ccc(-n2ncc3c(=O)n(CC(=O)N4CCCC4)cnc32)c(C)c1 do in these assays?
GIRK2 activ: inactive

How did O=C(NCc1ccc(C(F)(F)F)cc1)c1nnn(-c2ccc(Cl)cc2)c1-c1cccnc1 do in these assays?
GIRK2 activ: inactive

Results for CC1CCCN(c2nn(CC(=O)Nc3ccc(C(F)(F)F)cc3)c(=O)c3ccccc23)C1 (centres undefined) ?
GIRK2 activ: inactive

How did CCCOc1ccc(S(=O)(=O)NCCN2CCN(c3ccc(F)cc3)CC2)cc1 do in these assays?
GIRK2 activ: inactive

How did O=C(NCc1cccs1)NCC1(c2ccccc2)CCOCC1 do in these assays?
GIRK2 activ: inactive

How did O=C(Nc1oc2ccccc2c(=O)c1-c1ccccc1)c1ccccc1 do in these assays?
GIRK2 activ: inactive

Results for Cc1cc(C(=O)Nc2nnc(C3CC(=O)N(c4ccccc4)C3)o2)no1 (centres undefined) ?
GIRK2 activ: inactive

What do the screens show for `O=C(NCCNC(=O)NC1CCCCC1)NC1CCCCC1`?
GIRK2 activ: inactive

How did O=C(CSC1CCCC1)Nc1ccc(-c2ccn[nH]2)cc1 do in these assays?
GIRK2 activ: inactive

How did COc1ccc(C(=O)Nc2ccc(S(=O)(=O)N3CCC(C)CC3)cc2)cc1Br do in these assays?
GIRK2 activ: inactive

Results for O=C(NCc1cc(-c2cccs2)n(C2CCCC2)n1)c1ccccc1F ?
GIRK2 activ: inactive

What do the screens show for `O=C(NCC(Cc1cccc(F)c1)N1CCCCC1=O)c1ccno1` (centres undefined)?
GIRK2 activ: inactive

How did O=C(NCCCn1ncccc1=O)c1ccccc1C(F)(F)F do in these assays?
GIRK2 activ: inactive

What do the screens show for `O=C(O)COc1ccc(C(=O)c2cccs2)c(Cl)c1Cl`?
GIRK2 activ: inactive

What do the screens show for `Cc1ccc(NC(=O)Nc2cnc(Oc3ccccc3)nc2)cc1F`?
GIRK2 activ: inactive

Results for COc1ccc(Cl)cc1C(=O)NCCN1CCN(c2ccc(F)cc2)CC1 ?
GIRK2 activ: inactive

What do the screens show for `CSCCC(C)(O)CNC(=O)C(=O)Nc1ccc2c(c1)N(S(C)(=O)=O)CCC2` (centres undefined)?
GIRK2 activ: inactive

What do the screens show for `COc1ccc(S(=O)(=O)CC(=O)N(Cc2ccccn2)c2nc3ccccc3s2)cc1`?
GIRK2 activ: inactive

How did CCOc1ccc(C(=O)N2CCN(c3ccc(-n4cccc4)nn3)CC2)cc1 do in these assays?
GIRK2 activ: inactive

How did CC/C=C\C/C=C\C/C=C\C/C=C\CCCCC(=O)OC do in these assays?
GIRK2 activ: inactive

What do the screens show for `O=C(CN1CCCC(COCc2ccccc2)C1)Nc1ccc(F)cc1F` (centres undefined)?
GIRK2 activ: inactive

Results for COCCNC(=O)c1cc2c(=O)n3ccccc3nc2n(Cc2ccco2)c1=N ?
GIRK2 activ: inactive

Results for CC(C)Cn1c(=O)c2ccccc2n(Cc2nc(-c3cccc(Br)c3)no2)c1=O ?
GIRK2 activ: inactive

Results for O=S(=O)(CCc1ccccc1)NCC(O)c1ccc2c(c1)CCO2 (centres undefined) ?
GIRK2 activ: inactive

Results for Cc1ccc(C)c(Cn2c(N3CCN(CC(N)=O)CC3)nc3c2c(=O)[nH]c(=O)n3C)c1 ?
GIRK2 activ: inactive

Results for CCOC(=O)N1CCC(NC(=O)c2ccc(OCc3ccc4ccccc4n3)cc2)CC1 ?
GIRK2 activ: inactive

How did O=C1CC(c2nc(C3CC3)no2)CN1c1ccc(F)c(Cl)c1 (centres undefined) do in these assays?
GIRK2 activ: inactive

Results for CC1(C)Cc2cccc(OCC(=O)Nc3cc(-c4ccco4)nn3-c3nc4c(c(=O)[nH]3)CCC4)c2O1 ?
GIRK2 activ: inactive

What do the screens show for `Cc1ncc([N+](=O)[O-])n1CCOC(=O)c1cc2ccccc2oc1=O`?
GIRK2 activ: inactive

What do the screens show for `Cc1cc(NC(=O)c2ccc(S(=O)(=O)N(C)C)cc2)n(-c2nc3ccccc3s2)n1`?
GIRK2 activ: inactive

What do the screens show for `O=C(NCCC(O)c1ccoc1)C(=O)Nc1ccc(OC(F)(F)F)cc1` (centres undefined)?
GIRK2 activ: inactive

Results for O=C1CC(c2nc3ccccc3n2CCOc2ccc(Cl)cc2)CN1Cc1ccccc1 (centres undefined) ?
GIRK2 activ: inactive

Results for COc1ccc2c(c1)c(CC(=O)O)c(C)n2C(=O)c1ccc(Cl)cc1 ?
GIRK2 activ: inactive

What do the screens show for `C#CCOCC1CCN(C(=O)Nc2ccccc2)CC1`?
GIRK2 activ: inactive

Results for COc1ccc(C)cc1NC(=O)Cn1cc(S(=O)(=O)N2CCOCC2)ccc1=O ?
GIRK2 activ: inactive

What do the screens show for `COc1ccc(S(=O)(=O)NCCC(=O)N2CCCCC2)cc1N(C)S(C)(=O)=O`?
GIRK2 activ: inactive

How did Cc1ccc2c(CC(=O)Nc3ccc(S(=O)(=O)Nc4nccs4)cc3)cc(=O)oc2c1 do in these assays?
GIRK2 activ: inactive

What do the screens show for `COc1cc(-c2noc(C3CC(=O)N(c4cc(C)cc(C)c4)C3)n2)cc(OC)c1OC` (centres undefined)?
GIRK2 activ: inactive

Results for COc1ccc(NC(=O)CSc2nccc3c(OC)cccc23)c(OC)c1 ?
GIRK2 activ: inactive

What do the screens show for `COC(=O)c1ccc(C(=O)OC)c(NC(=O)c2cc(OCc3ccccc3)no2)c1`?
GIRK2 activ: inactive

Results for Cc1cn2c3c(=O)n(C)c(=O)n(C)c3nc2n1CCN1CCC(Cc2ccccc2)CC1 ?
GIRK2 activ: inactive

What do the screens show for `C/C=C(/C)C(=O)Oc1c(OC)c(OC)cc2c1-c1c(cc(OC)c(OC)c1OC)C[C@](C)(O)[C@@H](C)C2`?
GIRK2 activ: inactive

What do the screens show for `COc1ccc(SCC2CCN(C(C)=O)CC2)cc1`?
GIRK2 activ: inactive

Results for CCOC(=O)N1CCC(N2Cc3cccc(OC)c3OCC2=O)CC1 ?
GIRK2 activ: inactive

Results for Cc1nc(-c2cccc(NC(=O)c3nnn(-c4ccc(F)cc4)n3)c2)cs1 ?
GIRK2 activ: inactive

What do the screens show for `CN(C)CC/C=C1\c2ccccc2COc2ccccc21`?
GIRK2 activ: inactive

Results for COc1ccccc1NC(=O)N1CCC(CNC(=O)C2(c3ccc(Cl)cc3)CCCC2)CC1 ?
GIRK2 activ: inactive

What do the screens show for `CN1C(=O)C(c2c[nH]c3ccccc23)=C(c2c[nH]c3ccccc23)C1=O`?
GIRK2 activ: inactive

How did COc1ccc(NC(=O)COc2cc(C)nc(-c3ccc(C)cc3)n2)cc1OC do in these assays?
GIRK2 activ: inactive

How did COC(=O)c1ccc(CN2CCC(c3nn(C)c(=O)n3-c3ccccc3)CC2)o1 do in these assays?
GIRK2 activ: inactive

What do the screens show for `Cc1nc(-c2ccccc2)sc1CNC(=O)Cc1cccs1`?
GIRK2 activ: inactive

What do the screens show for `CC(C)CCNc1nc2c(c(=O)[nH]c(=O)n2C)n1CCCOc1ccccc1`?
GIRK2 activ: inactive

How did O=C(CN1CCCN(Cc2ccccc2Cl)S1(=O)=O)Nc1ccc(F)c(F)c1 do in these assays?
GIRK2 activ: inactive

What do the screens show for `O=C(CCn1c(=S)[nH]c2cc3c(cc2c1=O)OCO3)NCc1ccc2c(c1)OCO2`?
GIRK2 activ: inactive

Seven consecutive records out of the list so far, quoted:
What do the screens show for `COc1ccc(SCC2CCN(C(C)=O)CC2)cc1`?
GIRK2 activ: inactive

Results for CCOC(=O)N1CCC(N2Cc3cccc(OC)c3OCC2=O)CC1 ?
GIRK2 activ: inactive

Results for Cc1nc(-c2cccc(NC(=O)c3nnn(-c4ccc(F)cc4)n3)c2)cs1 ?
GIRK2 activ: inactive

What do the screens show for `CN(C)CC/C=C1\c2ccccc2COc2ccccc21`?
GIRK2 activ: inactive

Results for COc1ccccc1NC(=O)N1CCC(CNC(=O)C2(c3ccc(Cl)cc3)CCCC2)CC1 ?
GIRK2 activ: inactive

What do the screens show for `CN1C(=O)C(c2c[nH]c3ccccc23)=C(c2c[nH]c3ccccc23)C1=O`?
GIRK2 activ: inactive

How did COc1ccc(NC(=O)COc2cc(C)nc(-c3ccc(C)cc3)n2)cc1OC do in these assays?
GIRK2 activ: inactive

Later entries
What do the screens show for `CCN1CCN(c2nc3ccccc3nc2C(C#N)S(=O)(=O)c2ccc(C)c(C)c2)CC1` (centres undefined)?
GIRK2 activ: inactive

What do the screens show for `Cc1cccc(NC(=O)Cc2c(C)nc(SCc3ccccc3F)[nH]c2=O)c1C`?
GIRK2 activ: inactive

Results for Cc1ccc(-n2nnc(C(=O)Nc3ccc4c(c3)C(=O)OC4)c2N)cc1 ?
GIRK2 activ: inactive

How did O=C(NCc1nn(C2CCCC2)c(=O)c2ccccc12)c1cnn(-c2ccccc2)n1 do in these assays?
GIRK2 activ: inactive

What do the screens show for `Cc1cc(C)cc(N2CCN(S(=O)(=O)c3c(C)cc(C)cc3C)CC2)c1`?
GIRK2 activ: inactive

Results for Cc1ccc(S(=O)(=O)c2cnc(SCC(=O)Nc3ccccc3C)nc2N)cc1 ?
GIRK2 activ: inactive

Results for CCOc1ccc2nc(N(CCCn3ccnc3)C(=O)c3ccco3)sc2c1 ?
GIRK2 activ: inactive

What do the screens show for `CCCCN(CCCC)CC(O)COc1ccc2ccccc2c1` (centres undefined)?
GIRK2 activ: inactive

What do the screens show for `COc1ccc(OC)c(NC(=O)Cn2ncn3nc(-c4ccccc4)cc3c2=O)c1`?
GIRK2 activ: inactive

Results for CCc1ccccc1NC(=O)C(=O)NCc1ccc(OC)cc1 ?
GIRK2 activ: inactive

Results for COc1cccc2cc(C(=O)NCc3cc(-c4ccncc4)n(C4CCCC4)n3)oc12 ?
GIRK2 activ: inactive

Results for CC(C)N(CC#CCNC(=O)C1CCCN(C)C1)C(C)C (centres undefined) ?
GIRK2 activ: inactive

How did CC1CCCCN1CC(O)COc1ccc(-c2ccccc2)cc1 (centres undefined) do in these assays?
GIRK2 activ: inactive

What do the screens show for `Cn1nc(-c2ccc(F)cc2)cc1C(=O)N1CCc2nc(NC(=O)C3CC3)sc2C1`?
GIRK2 activ: inactive

What do the screens show for `Cc1csc(C(=O)NCCC(O)C(C)(C)C)c1` (centres undefined)?
GIRK2 activ: inactive

What do the screens show for `N#Cc1ccc(OC2CCN(S(=O)(=O)c3ccc(Cl)s3)CC2)nc1`?
GIRK2 activ: inactive

How did Cc1nc2c(c(=O)c3ccccc3n2C)c(=O)n1-c1ccccc1 do in these assays?
GIRK2 activ: inactive

How did COc1cccc(CNC(=O)C(=O)NCCC2CCCCN2S(=O)(=O)c2ccc(F)cc2)c1 (centres undefined) do in these assays?
GIRK2 activ: inactive

Results for COc1ccc(-n2c(C)c(C)n3c4c(=O)n(Cc5ccccc5)c(=O)n(C)c4nc23)c(OC)c1 ?
GIRK2 activ: inactive

How did O=C(CCn1cnc2ccccc2c1=O)NCCn1cnc(-c2ccccc2)cc1=O do in these assays?
GIRK2 activ: inactive

The closing two records of the section before lead into the next:
Results for COc1ccc(-n2c(C)c(C)n3c4c(=O)n(Cc5ccccc5)c(=O)n(C)c4nc23)c(OC)c1 ?
GIRK2 activ: inactive

How did O=C(CCn1cnc2ccccc2c1=O)NCCn1cnc(-c2ccccc2)cc1=O do in these assays?
GIRK2 activ: inactive

What do the screens show for `CN1N=C(C(=O)N2CCOCC2)S(=O)(=O)c2ccc(Cl)cc21`?
GIRK2 activ: inactive

How did CCOC(=O)CCC(=O)NCCN1CCN(c2ccccc2)CC1 do in these assays?
GIRK2 activ: inactive

How did O=S(=O)(c1cccnc1)N1CCC(CSCc2ccco2)CC1 do in these assays?
GIRK2 activ: inactive

How did CCCc1ccc(OCC(O)CN2CCN(C(=O)OCC)CC2)cc1 (centres undefined) do in these assays?
GIRK2 activ: inactive

What do the screens show for `O=C(NCc1ccccc1OC(F)(F)F)c1csc(Nc2ccccn2)n1`?
GIRK2 activ: inactive

What do the screens show for `COc1cc(Nc2c(C(=O)N3CCCC3)cnc3nc(C)ccc23)cc(OC)c1OC`?
GIRK2 activ: inactive

What do the screens show for `CN(Cc1ccccc1)c1oc(-c2ccc(S(=O)(=O)N3CCCCC3)cc2)nc1C#N`?
GIRK2 activ: inactive

Results for CCc1ccc(NC(=O)Cn2nc3c(Sc4ccccc4)nccn3c2=O)cc1 ?
GIRK2 activ: inactive

What do the screens show for `CCOC(=O)c1c(C2CC2)csc1N`?
GIRK2 activ: inactive

Results for CN(CC(=O)NCC(F)(F)F)C(=O)c1c[nH]c2ccccc12 ?
GIRK2 activ: inactive

Results for COc1ccc(CC(=O)NCCN2CCN(c3ccccc3F)CC2)cc1OC ?
GIRK2 activ: inactive

What do the screens show for `CCCc1nnsc1C(=O)Nc1ccc(-n2nnn(CC(=O)NC3CC3)c2=O)cc1`?
GIRK2 activ: inactive

Results for CC(=O)Nc1ccc(NC(=O)c2cc(=O)c(OCc3ccc(F)cc3)c[nH]2)cc1 ?
GIRK2 activ: inactive

Results for COc1ccc(/C=C2\Oc3c(ccc4c3CN(CC3CCCO3)CO4)C2=O)cc1 (centres undefined) ?
GIRK2 activ: inactive

What do the screens show for `CCn1c(N2CCN(CC(=O)OCc3ccccc3)CC2)nc2c1c(=O)[nH]c(=O)n2C`?
GIRK2 activ: inactive

Results for O=C(N1CCN(CC(O)c2cccs2)CC1)C1(c2ccccc2)CCOCC1 (centres undefined) ?
GIRK2 activ: inactive

How did O=[N+]([O-])c1ccc(Cl)c(S(=O)(=O)NCCOc2ccc3c(c2)OCO3)c1 do in these assays?
GIRK2 activ: inactive

Results for CC(C)(Oc1ccc(Cl)cc1)C(=O)Nc1ccc2cn[nH]c2c1 ?
GIRK2 activ: inactive

Not all compounds are listed, so the mix of outcomes need not match the whole.
